Source: PubChem
ID4 SMM = binders of human ID4 protein, primary screen, biochemical, small molecule microarray, single point; calls only; Flag-ID4 binding, fluorescence F/B; 31,000 compounds, 1.2% hits;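 active = spot signal over background at p below 0.07 in all four prints; compounds were printed on slides so no solution concentration is given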;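 note: a binder raises fluorescence above local background on the spot; about 2 pmol printed per array spot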
Target sequence (P47928 whole entry, looked up): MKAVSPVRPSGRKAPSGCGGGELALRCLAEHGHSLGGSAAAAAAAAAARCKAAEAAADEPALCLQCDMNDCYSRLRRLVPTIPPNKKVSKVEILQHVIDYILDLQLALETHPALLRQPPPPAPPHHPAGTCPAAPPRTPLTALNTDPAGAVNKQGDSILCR
Calls only; i = inactive; + = active, no number. These rows are one share of the data; the hit share may differ from the screen's.

SMILES | ID4 SMM
C[C@@H]1CN([C@H](C)CO)C(=O)c2c(c3ccccc3n2C)-c2ccccc2CO[C@@H]1CN(C)C(=O)N[C@H](C)c1ccccc1 | i
C[C@H]1CN([C@@H](C)CO)C(=O)c2cc(-c3ccccc3)cnc2O[C@@H]1CN(C)C | i
COc1ccc(OC)c(S(=O)(=O)N(C)CC(=O)Nc2cccc(Cl)c2C)c1 | i
Cc1ccc(-c2nc3ccccc3s2)cc1NC(=O)COc1ccccc1Cl | i
NC(N)=NS(=O)(=O)c1ccc(NC(=O)OC2CCCC2)cc1 | i
O=C(NCC[C@@H]1CC[C@H](NC(=O)C2CC2)[C@@H](CO)O1)c1ccc(F)cc1 | i
O=C(C[C@H]1C=C[C@@H](NC(=O)c2ccccc2)[C@@H](CO)O1)Nc1ccc(-c2ccccc2)cc1 | i
Cn1ncc2c(NN3C(=O)CCC3=O)ncnc21 | i
COc1cccc(S(=O)(=O)Nc2ccc3c(c2)[C@@H]2C[C@@H](CC(=O)NC4CCCCC4)O[C@@H](CO)[C@@H]2O3)c1 | i
CN(C)C(=O)C[C@@H]1CC[C@@H](NC(=O)c2ccc(F)cc2)[C@@H](CO)O1 | i
O=C(Cc1ccncc1)Nc1ccc2c(c1)[C@@H]1C[C@@H](CC(=O)N3CCc4ccccc4C3)O[C@@H](CO)[C@@H]1O2 | i
C[C@H](CO)N1C[C@H](C)[C@@H](CN(C)Cc2ccccc2)Oc2ncc(-c3ccccc3F)cc2C1=O | i
CCOC(=O)Nc1cccc(NC(=O)CC2c3ccccc3Oc3ccccc32)c1 | i
COC(=O)c1sccc1NC(=S)N(C)CCC#N | i
C[C@@H]1CN([C@@H](C)CO)C(=O)c2cc(-c3ccccc3F)cnc2O[C@@H]1CN(C)Cc1ccccc1F | i
C[C@@H]1CN([C@H](C)CO)C(=O)c2cc(C3=CCCC3)cnc2O[C@@H]1CN(C)C(=O)C1CC1 | i
O=C(C[C@H]1CC[C@H](NC(=O)CCN2CCCCC2)[C@H](CO)O1)Nc1nccs1 | i
CSc1nc(N)nc(SCC(=O)Nc2ccc(Cl)cc2)c1C#N | i
O=C(C[C@H]1C=C[C@@H](NC(=O)c2cccc(F)c2)[C@@H](CO)O1)Nc1nccs1 | i
COc1ccc(S(=O)(=O)N[C@H]2C=C[C@@H](CC(=O)N3CCc4ccccc4C3)O[C@H]2CO)cc1 | i
O=C(CCN1CCCCC1)N[C@@H]1CC[C@H](CC(=O)N2CCC(Cc3ccccc3)CC2)O[C@@H]1CO | i
Cc1ccccc1NC(=O)CN(c1ccc(Cl)c(Cl)c1)S(C)(=O)=O | i
Cn1c(SCC(=O)Nc2ccccc2F)nnc1-c1ccc(Br)cc1 | i
O=C(c1cccc(CN2CCN(c3nc(-c4ccccc4)ns3)CC2)c1)N1CCC(O)CC1 | i
CCc1ccc(-c2nc3cc(NC(=O)COc4ccc([N+](=O)[O-])cc4)ccc3o2)cc1 | i
CCNC(=O)C[C@H]1CC[C@H](NC(=O)C2CC2)[C@@H](CO)O1 | i
CC(C)CC#Cc1cnc2c(c1)C(=O)N([C@H](C)CO)C[C@H](C)[C@H](CN(C)Cc1ccccc1F)O2 | i
CN=C1S/C(=C/c2cccc(F)c2)C(=O)N1C | i
OCc1nc2ccccc2n1CCCOc1ccc(Br)cc1 | i
O=C(C[C@@H]1CC[C@@H](NC(=O)C2CC2)[C@H](CO)O1)Nc1ccccc1 | i
Cc1cc(I)cc(C)c1NC(=O)CSc1n[nH]c(-c2ccc(Cl)cc2)n1 | i
O=C(C[C@H]1CC[C@@H](NC(=O)c2ccncc2)[C@@H](CO)O1)NCC1CC1 | i
C=CCOC(=O)[C@@H]1[C@H]2C(=O)O[C@H](c3ccccc3)[C@H](c3ccccc3)N2[C@H](c2ccc(OCCOC(=O)[C@@H]3C[C@@H]4C(=O)N[C@@H](CCCCNC(C)=O)C(=O)N4[C@@H]3c3ccc(O)cc3)cc2)[C@@]12C(=O)Nc1ccc(I)cc12 | i
O=C(COc1ccc(Cl)cc1Cl)Nc1ncccn1 | i
Cc1ccc(C(=O)Oc2ccc(C(=O)CSc3nc4ccccc4o3)cc2)cc1 | i
C[C@H]1CN([C@@H](C)CO)C(=O)c2cc(C3=CCCC3)cnc2O[C@@H]1CN(C)C(=O)c1ccccc1 | i
C[C@@H]1CN([C@H](C)CO)C(=O)c2cc(-c3ccc(C(=O)N(C)C)cc3)cnc2O[C@H]1CN(C)C | +
Cc1cc(OCC(=O)Nc2ccccc2CO)cc(C)c1Br | i
C[C@@H](NC(=O)C[C@@H]1CC[C@H](NC(=O)CN2CCOCC2)[C@H](CO)O1)c1ccccc1 | i
O=C(O)c1ccc(OCC(O)Cn2cnc3ccccc32)cc1 (stereo not drawn) | i
Cc1cc(Cc2c(O)nc(SCc3ccccc3)[nH]c2=O)ccc1OC(C)C | i
CCC1Nc2ccccc2-c2nnc(SC)nc2O1 (stereo not drawn) | i
COc1cccc(NC(=O)CSc2nnc(-c3cccc(OC)c3)n2-c2ccc(Cl)cc2)c1 | i
C[C@@H]1CN([C@@H](C)CO)C(=O)c2ccccc2-c2ccccc2CO[C@H]1CN(C)C(=O)CCN(C)C | i
C=CCOC(=O)[C@H]1[C@@H]2C(=O)O[C@@H](c3ccccc3)[C@@H](c3ccccc3)N2[C@@H](c2ccc(OCCOC(=O)[C@@H]3C[C@@H]4C(=O)NCC(=O)N4[C@@H]3c3cccc(OCCO)c3)cc2)[C@]12C(=O)Nc1ccc(I)cc12 | i
CCc1nc(SCC(=O)Nc2cccc(Cl)c2)n[nH]1 | i
O=c1cc(-c2ccccc2)nc(Cc2c(Cl)cccc2Cl)[nH]1 | i
COc1cccc(S(=O)(=O)Nc2ccc(C(=O)Nc3ccc4c(c3)OCCO4)cc2)c1 | i
Cc1ccc(-c2cnc3c(c2)C(=O)N([C@H](C)CO)C[C@@H](C)[C@H](CN(C)C(=O)CN(C)C)O3)cc1 | i
Cc1nnc(Sc2nc3ccc(Cl)cc3s2)n1-c1ccc2c(c1)OCCO2 | i
O=C(N[C@H]1C=C[C@H](CC(=O)N2CCN(c3ccccc3)CC2)O[C@@H]1CO)c1ccccc1 | i
COC(=O)CN(c1cccc(C)c1)S(=O)(=O)c1ccccc1 | i
Nc1nnc(SCC(=O)Nc2ccc3c(c2)OCCO3)s1 | i
c1ccc2c3c([nH]c2c1)[C@H]1C2CCC([C@@H]4CCCN[C@H]24)N1CC3 (stereo partly drawn) | i
Cc1ccc2c(c1)c1c(n2CC(O)Cn2nc(C)c(Br)c2C)CCCC1 (stereo not drawn) | i
CNC[C@@H]1Oc2cc(C#CC(C)C)ccc2S(=O)(=O)N([C@H](C)CO)C[C@H]1C | i
C[C@H]1CN([C@@H](C)CO)C(=O)c2cc(C#Cc3cccc(F)c3)cnc2O[C@H]1CN(C)C(=O)C1CCC1 | i
O=C(CNS(=O)(=O)c1cc(Cl)ccc1Cl)Nc1ccc(Br)cc1F | i
CC1(C)C/C(=N\O)c2c(nc(C(F)(F)F)c3[nH]c4ccccc4c23)C1 | i
COc1ccc2c(C)nc(Nc3nc(C)cc(=O)[nH]3)nc2c1 | i

A second format for some results above.
structure	ID4 SMM
O=c1cc(-c2ccccc2)nc(Cc2c(Cl)cccc2Cl)[nH]1	i
COc1cccc(S(=O)(=O)Nc2ccc(C(=O)Nc3ccc4c(c3)OCCO4)cc2)c1	i
Cc1ccc(-c2cnc3c(c2)C(=O)N([C@H](C)CO)C[C@@H](C)[C@H](CN(C)C(=O)CN(C)C)O3)cc1	i
Cc1nnc(Sc2nc3ccc(Cl)cc3s2)n1-c1ccc2c(c1)OCCO2	i
O=C(N[C@H]1C=C[C@H](CC(=O)N2CCN(c3ccccc3)CC2)O[C@@H]1CO)c1ccccc1	i
COC(=O)CN(c1cccc(C)c1)S(=O)(=O)c1ccccc1	i
Nc1nnc(SCC(=O)Nc2ccc3c(c2)OCCO3)s1	i
c1ccc2c3c([nH]c2c1)[C@H]1C2CCC([C@@H]4CCCN[C@H]24)N1CC3 (stereo partly drawn)	i
Cc1ccc2c(c1)c1c(n2CC(O)Cn2nc(C)c(Br)c2C)CCCC1 (stereo not drawn)	i
CNC[C@@H]1Oc2cc(C#CC(C)C)ccc2S(=O)(=O)N([C@H](C)CO)C[C@H]1C	i
C[C@H]1CN([C@@H](C)CO)C(=O)c2cc(C#Cc3cccc(F)c3)cnc2O[C@H]1CN(C)C(=O)C1CCC1	i
O=C(CNS(=O)(=O)c1cc(Cl)ccc1Cl)Nc1ccc(Br)cc1F	i
CC1(C)C/C(=N\O)c2c(nc(C(F)(F)F)c3[nH]c4ccccc4c23)C1	i
COc1ccc2c(C)nc(Nc3nc(C)cc(=O)[nH]3)nc2c1	i

(continued)
SMILES | ID4 SMM
CCOC(=O)Nc1ccc2c(c1)N(C(=O)CCN(C)C)c1ccccc1CC2 | i
Cc1ccc(-n2c(C)nnc2SCC(=O)Nc2cc(C(F)(F)F)ccc2Cl)cc1 | i
COc1cccc(OCC(=O)Nc2ccccc2C(=O)Nc2ccc(C(=O)O)cc2)c1 | i
CCCC#Cc1ccc2c(c1)O[C@@H](CN(C)C(=O)c1cnccn1)[C@@H](C)CN([C@H](C)CO)S2(=O)=O | i
O=C(NCC[C@H]1CC[C@@H](NC(=O)C2CC2)[C@@H](CO)O1)c1ccc(F)cc1 | i
Cc1cc(=O)[nH]c(SCC(=O)N2CCN(c3ccccc3)CC2)n1 | i
CC(NS(=O)(=O)c1ccc(Br)cc1)C(=O)Nc1ccc(Cl)cc1Cl (stereo not drawn) | i
C[C@@H]1CN([C@@H](C)CO)C(=O)c2cc(C#CCN(C)C)cnc2O[C@H]1CN(C)Cc1ccccn1 | i
C[C@H](O)C#Cc1ccc2c(c1)O[C@@H](CN(C)Cc1cccnc1)[C@@H](C)CN([C@H](C)CO)S2(=O)=O | i
CCOC(=O)C1=C(C)NC(=S)NC1c1cccc(O)c1 (stereo not drawn) | i
O=C(CSc1nc2sc3c(c2c(=O)[nH]1)CCC3)Nc1ccccc1C(F)(F)F | i
C[C@@H]1CN([C@H](C)CO)C(=O)c2cc(C#CC(C)(C)O)cnc2O[C@H]1CN(C)Cc1cccc(F)c1 | i
CCC(=O)N[C@H]1CC[C@@H](CC(=O)NCC2CCCCC2)O[C@H]1CO | i
COc1ccc(-c2nnc(SCc3ccc(OC)c([N+](=O)[O-])c3)n2-c2ccccc2)cc1 | i
C/C=C/c1ccc2c(c1)O[C@H](CN(C)Cc1ccccc1)[C@H](C)CN([C@@H](C)CO)S2(=O)=O | i
COc1ccc2nc(SCC(=O)NC3CCCC3)[nH]c2c1 | i
COc1ccc(NC(=O)COc2cc(C)c(Br)cc2C)c([N+](=O)[O-])c1 | i
CCCN(C)C[C@@H]1Oc2ncc(C#CC3(O)CCCC3)cc2C(=O)N([C@@H](C)CO)C[C@@H]1C | i
N#Cc1c(SCC(=O)Nc2c(Cl)cccc2Cl)nc2c(c1-c1cccnc1)CCC2 | i
O=C(CSc1nnc(-c2ccncc2)n1-c1ccccc1)Nc1ccc(Br)cc1C(F)(F)F | i
C[C@@H]1CN([C@H](C)CO)C(=O)c2cc(C#CCC3CCCC3)cnc2O[C@H]1CN(C)C(=O)c1cnccn1 | i
Cc1c(Cl)cccc1NC(=O)COc1ccc(C(=O)Nc2cccc(C(F)(F)F)c2)cc1 | i
CCCc1cc(=S)sc(N)n1 | i
c1ccc(OCCSc2nnc3n(-c4ccccc4)c4ccccc4n23)cc1 | i
CCc1ccc(OCC(=O)Nc2cccc(-c3nc4cc(Cl)ccc4o3)c2C)cc1 | i
C[C@H](CO)N1C[C@H](C)[C@@H](CN(C)C(=O)c2ccc(F)cc2)Oc2ncc(C#CC3CC3)cc2C1=O | i
C[C@H](CO)N1C[C@H](C)[C@H](CN(C)C(=O)Cc2ccncc2)Oc2ncc(C#Cc3ccccc3F)cc2C1=O | i
CCN(CC(=O)Nc1cccc(OC)c1)S(=O)(=O)c1ccc2ccccc2c1 | i
CC(=O)N(C)C[C@@H]1Oc2ncc(-c3ccccc3F)cc2C(=O)N([C@H](C)CO)C[C@H]1C | i
C[C@H](CO)N1C[C@H](C)[C@@H](CN(C)C(=O)c2ccc3c(c2)OCO3)Oc2ncc(C#Cc3ccccc3F)cc2C1=O | i
O=C(C[C@H]1C=C[C@H](NC(=O)c2ccc(F)cc2)[C@H](CO)O1)NCCc1ccccc1 | i
COc1ccccc1C(=O)NCCCn1cc(Br)c(C)n1 | i
CCSc1ncc(Cl)c(C(=O)Nc2sc3c(c2C(=O)NCC2CCCO2)CCCC3)n1 (stereo not drawn) | i
O=C(COc1cc(O)c2c(=O)cc(-c3ccccc3)oc2c1)c1cccc([N+](=O)[O-])c1 | i
CN(CC(=O)Nc1cccc(I)c1)S(=O)(=O)c1ccc(Cl)cc1 | i
CC(=O)NCCc1nc2cc(NC(=O)c3ccco3)ccc2n1C | i
O=C(N[C@H]1CC[C@@H](CC(=O)N2CCc3ccccc3C2)O[C@H]1CO)C1CCOCC1 | i
CCCCc1ccc2nc(NC(=O)OC)[nH]c2c1 | i
C[C@H]1CN([C@@H](C)CO)C(=O)CCCn2nncc2CO[C@H]1CN(C)Cc1ccc(Cl)c(Cl)c1 | i
C/C=C/c1cnc2c(c1)C(=O)N([C@@H](C)CO)C[C@H](C)[C@H](CN(C)C(=O)c1cnccn1)O2 | i
COC(=O)COc1ccc(NC(=O)c2ccc(OC)c([N+](=O)[O-])c2)cc1 | i
COc1ccccc1-n1nnnc1SCC(=O)Nc1ccccc1F | i
CCC(=O)Nc1cccc(NC(=O)COc2c(C)cc(C)cc2Br)c1 | i
COc1ccc(OC)c(NC(=O)CSc2nc(C)cc(=O)[nH]2)c1 | i
Cn1c(SCC(=O)Nc2cccc3ccccc23)nnc1-c1ccc(F)cc1 | i
COc1cc(OC)cc(C(=O)Nc2ccc(S(=O)(=O)Nc3nc(C)cc(C)n3)cc2)c1 | i
CCn1c(COc2cccc3cccnc23)nnc1SCC(=O)OC | i
CC(C)(C)C(=O)c1cn(CC(=O)Nc2ccccc2)c2ccccc12 | i
COC(=O)[C@@]1(Cc2ccccc2)COC(c2ccc(OCCCO)cc2)=N1 | i
C[C@@H]1CN([C@H](C)CO)S(=O)(=O)c2ccc(C3=CCCCC3)cc2O[C@@H]1CN(C)C | i
C[C@@H]1CN([C@H](C)CO)S(=O)(=O)c2ccc(C#CC3CC3)cc2O[C@H]1CN(C)C | i
